Compound activity as filed in PubChem.
TGFb inhibitor = inhibitors of TGF-b signaling; HepG2 CAGA-GFP TGF-b/SMAD3 reporter, GFP fluorescence, 18 h; TGF-beta stimulated, 500 pg/mL final; hit rate 1.2% among 410,000; Potency, µM (series often up to 46.1 µM), inactives show top-dose activity, negative = inhibition, hits mostly inhibitors; also: potency is read from the fitted curve at half-maximal effect; % is scaled to controls: 0 for no effect and ±100 for the full control effect; nearly all actives have a fitted effect of over 65% in size
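First, reporter cells (HEPG2 CAGA-GFP) rested 2 h at 37 degrees C. Next, compounds were pinned in and TGF-beta added to 500 pg/mL final. After 18 h, GFP was imaged per cell and summed per well.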
Mm-Cpn inhibitor = inhibitors of Methanococcus maripaludis chaperonin (MmCpn). purified Mm-Cpn ATPase, ADP Transcreener TR-FRET. Potency, µM (doses to about 76.9 µM), for inactives: at the highest dose activity, negative = inhibition, hits mostly inhibitors. hit rate 0.031% among 330,000; also: potency is read from the fitted curve at half-maximal effect; % is scaled to controls: 0 for no effect and ±100 for the full control effect; nearly all actives have a fitted effect of over 80% in size
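ATP (10 uM final) was added to archaeal chaperonin (25 nM final) after 10 min exposure to test compound at 37°C; after 30 min further incubation, ADP was detected by competitive TR-FRET.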
CCT chaperon mod = changes cytosolic chaperonin activity; purified chaperonin ATPase assay, HTRF ADP detection, 30 min; activity change, % (concentration not given with the values), hits read low; hit rate 0.3% among 360,000; in the data active = activity change below about -30%; also: % is scaled to controls: 0 for no effect and ±100 for the full control effect
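Nucleotide hydrolysis assay: TRiC at 20–40 nM final (set by batch activity) with 10 uM ATP, 30 min at 37 °C, in presence of 76 uM compound. Detection by competitive ADP HTRF, 30 min ambient.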
A549 viability = A549 cytotoxicity, counter-screen for Nrf2 inhibitors | A549 ARE-Fluc cells, CellTiter-Fluor viability, 18-24 h | hit rate 0.16% among 390,000 | Potency, µM (series often up to 46 µM), without a hit: top-dose activity change, negative = cytotoxicity, usual class: inhibitors | AID 504648; also: potency is read from the fitted curve at half-maximal effect; % is scaled to controls: 0 for no effect and ±100 for the full control effect
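A549 ARE_Fluc cells in 5% FBS OPTI-MEM were exposed to compounds in concentration-response for 18-24 h at 37 deg C. Viability was read by CellTiter-Fluor fluorescence (Ex 405/Em 525) after 30 min, before the luciferase read.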
HepG2 tox = HepG2 cytotoxicity, counter-screen for TGF-b inhibitors; HepG2 CAGA-GFP viability, ATP luminescence, 18 h; Potency, µM (titrated, usually from 46.1 µM), for inactives: top-dose activity change, negative = cytotoxicity, actives largely listed as cytotoxic; hit rate 0.76% among 410,000; AID 588856; also: potency is read from the fitted curve at half-maximal effect; some results filed as inactive show a strong effect at the top dose
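HepG2 CAGA-GFP cells (1000/well, DMEM with 1% FBS) received compound, then TGF-beta at 500 pg/mL final, and were incubated 18 hours at 37 degrees C. Viability was read by CellTiter-Glo luminescence. Media-only wells were set as complete cell-killing and DMSO as no toxicity.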
Starred values were filed as active, the others as inactive; u = inconclusive; x = not tested or not shown; & = joins results of further samples; [ ] = another dose, or the depositor's remark. Unless noted, calls follow the shape of the dose curve; as a rule, active = well fitted curve in the direction sought with a large enough effect; inconclusive = small, poorly fitted or top-dose-only effect, or another doubt; inactive = no such curve, though single readings can be large; an effect the other way counts as inactive or inconclusive. The list is partial; rates above refer to the full screens.

#1 CN([C@@H](Cc1ccc(OS(=O)(=O)c2cccc3cnccc23)cc1)C(=O)N1CCN(c2ccccc2)CC1)S(=O)(=O)c1cccc2cnccc12
#2 Nc1ncnc2c1cnn2-c1ccccc1
#3 C=Cc1c(C)c2cc3[nH]c(cc4nc(cc5nc(cc1[nH]2)C(C)=C5CCC(=O)O)C(CCC(=O)O)=C4C)c(C)c3C=C
#4 CN(C)c1ccnc2sc(C(N)=O)c(N)c12
#5 CN(C)CCCN1c2ccccc2CCc2ccc(Cl)cc21
#6 CCN1/C(=C/C(C)=O)Sc2ccc(OC)cc21
#7 N#C/C(=C\c1ccc(O)c(O)c1)C(=O)NCc1ccccc1
#8 Cc1cc2ncc(-c3ccccc3)nc2cc1C

Assay by compound	1	2	3	4	5	6	7	8
TGFb inhibitor	u	-6%	u	-7%	-28%	5%&2%&3%	8%&-1%	-20%
Mm-Cpn inhibitor	-15%	1%	-23%	-3%	-3%[15.4 µM]	-2%	u	0%
CCT chaperon mod	-1.0	2.3	-3.9&3.2	-1.4	-0.4	-2.1	-0.2	-1.0
A549 viability	-5%	0%	u	3%	-1%	-2%&-14%&-8%	-18%	-1%
HepG2 tox	-19%	-1%	0%&3%	-1%	-56%	-14%&-1%&-22%	-31%&-32%	-12%

#9 CNCCCC12CCC(c3ccccc31)c1ccccc12
#10 CNCCCC1c2ccccc2C=Cc2ccccc21
#11 O=C(Nc1ccccc1)Nc1ccccc1
#12 C[N+]1(C)CC[C@H](OC(=O)[C@@](O)(c2ccccc2)C2CCCC2)C1
#13 CC(C)(C)c1ccc(C(O)CCCN2CCC(C(O)(c3ccccc3)c3ccccc3)CC2)cc1 (configuration not stated)
#14 CCn1nc(C(=O)O)c(=O)c2cc3c(cc21)OCO3
#15 CN(C)CCOC(c1ccccc1)c1ccccc1 (tested in a mixture with another compound)
#16 O=C(Nc1ccc2[nH]ncc2c1)c1cccc(F)c1

Assay by compound	9	10	11	12	13	14	15	16
TGFb inhibitor	39%[activator]	25%	-1%	13%	-1%	-1%	23%	2%
Mm-Cpn inhibitor	3%&-1%&-2%&2%	1%[15.4 µM]	x	2%	0%[15.4 µM]	-1%	3%[15.4 µM]	0%
CCT chaperon mod	0.6&0.5&-0.1	-1.1	0.3	-0.5	-2.8	1.1	-1.2	-1.5
A549 viability	6%&7%&12%	-4%	1%&-4%	-3%	-11%	4%	0%	1%
HepG2 tox	-81%&-66%&-82%	-33%	-26%	-5%	-19%	-4%	2%	3%

#17 CC(C)COCC(CN(Cc1ccccc1)c1ccccc1)N1CCCC1 (configuration not stated)
#18 CSc1ccc2c(c1)N(CCC1CCCCN1C)c1ccccc1S2 (configuration not stated)
#19 OCCN(CCO)c1nc(N2CCCCC2)c2nc(N(CCO)CCO)nc(N3CCCCC3)c2n1
#20 N#CC(=Cc1ccc(O)cc1)C(N)=C(C#N)C#N
#21 COc1ccc(CCN2CCC(Nc3nc4ccccc4n3Cc3ccc(F)cc3)CC2)cc1

Assay by compound	17	18	19	20	21
TGFb inhibitor	-17%	u	35%[activator]	9%	u
Mm-Cpn inhibitor	0%[15.4 µM]	3%	-21%	-13%	2%[15.4 µM]
CCT chaperon mod	-0.4	-1.1	-1.0	0.1	0.6
A549 viability	-6%	-11%	u	-2%	u
HepG2 tox	-46%	-91%	-16%	-18%	-105%

11 structures out of the list, ordered by SMILES length, highest first.
#13 CC(C)(C)c1ccc(C(O)CCCN2CCC(C(O)(c3ccccc3)c3ccccc3)CC2)cc1 (configuration not stated)
#19 OCCN(CCO)c1nc(N2CCCCC2)c2nc(N(CCO)CCO)nc(N3CCCCC3)c2n1
#12 C[N+]1(C)CC[C@H](OC(=O)[C@@](O)(c2ccccc2)C2CCCC2)C1
#21 COc1ccc(CCN2CCC(Nc3nc4ccccc4n3Cc3ccc(F)cc3)CC2)cc1
#17 CC(C)COCC(CN(Cc1ccccc1)c1ccccc1)N1CCCC1 (configuration not stated)
#18 CSc1ccc2c(c1)N(CCC1CCCCN1C)c1ccccc1S2 (configuration not stated)
#14 CCn1nc(C(=O)O)c(=O)c2cc3c(cc21)OCO3
#20 N#CC(=Cc1ccc(O)cc1)C(N)=C(C#N)C#N
#9 CNCCCC12CCC(c3ccccc31)c1ccccc12
#8 Cc1cc2ncc(-c3ccccc3)nc2cc1C

Assay by compound	13	19	12	21	17	18	14	20	9	8
TGFb inhibitor	-1%	35%[activator]	13%	u	-17%	u	-1%	9%	39%[activator]	-20%
Mm-Cpn inhibitor	0%[15.4 µM]	-21%	2%	2%[15.4 µM]	0%[15.4 µM]	3%	-1%	-13%	3%&-1%&-2%&2%	0%
CCT chaperon mod	-2.8	-1.0	-0.5	0.6	-0.4	-1.1	1.1	0.1	0.6&0.5&-0.1	-1.0
A549 viability	-11%	u	-3%	u	-6%	-11%	4%	-2%	6%&7%&12%	-1%
HepG2 tox	-19%	-16%	-5%	-105%	-46%	-91%	-4%	-18%	-81%&-66%&-82%	-12%

#11 O=C(Nc1ccccc1)Nc1ccccc1

Assay by compound	11
TGFb inhibitor	-1%
Mm-Cpn inhibitor	x
CCT chaperon mod	0.3
A549 viability	1%&-4%
HepG2 tox	-26%
